Rango complex inh = qHTS Assay for Inhibitors of Rango (Ran-regulated importin-beta cargo) - Importin beta complex formation; Importin subunit beta-1 (Homo sapiens), Q14974; Rango CFP/YFP FRET sensor + importin beta, 45 min; Potency, µM (highest dose often 92.2 µM), for the others: top-dose inhibition of complex formation; 340,000 compounds, 0.031% hits; active = rising FRET ratio curve, often small or poorly fitted; inconclusive = mostly compound fluorescence or quenching in the first reads; inactive = flat curves in all reads;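 also: potency is read from the fitted curve at half-maximal effect; 0% = DMSO wells and 100% = buffer wells lacking importin beta; nearly all actives have a fitted effect of over 15% in size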
Target sequence (Q14974 whole entry, looked up): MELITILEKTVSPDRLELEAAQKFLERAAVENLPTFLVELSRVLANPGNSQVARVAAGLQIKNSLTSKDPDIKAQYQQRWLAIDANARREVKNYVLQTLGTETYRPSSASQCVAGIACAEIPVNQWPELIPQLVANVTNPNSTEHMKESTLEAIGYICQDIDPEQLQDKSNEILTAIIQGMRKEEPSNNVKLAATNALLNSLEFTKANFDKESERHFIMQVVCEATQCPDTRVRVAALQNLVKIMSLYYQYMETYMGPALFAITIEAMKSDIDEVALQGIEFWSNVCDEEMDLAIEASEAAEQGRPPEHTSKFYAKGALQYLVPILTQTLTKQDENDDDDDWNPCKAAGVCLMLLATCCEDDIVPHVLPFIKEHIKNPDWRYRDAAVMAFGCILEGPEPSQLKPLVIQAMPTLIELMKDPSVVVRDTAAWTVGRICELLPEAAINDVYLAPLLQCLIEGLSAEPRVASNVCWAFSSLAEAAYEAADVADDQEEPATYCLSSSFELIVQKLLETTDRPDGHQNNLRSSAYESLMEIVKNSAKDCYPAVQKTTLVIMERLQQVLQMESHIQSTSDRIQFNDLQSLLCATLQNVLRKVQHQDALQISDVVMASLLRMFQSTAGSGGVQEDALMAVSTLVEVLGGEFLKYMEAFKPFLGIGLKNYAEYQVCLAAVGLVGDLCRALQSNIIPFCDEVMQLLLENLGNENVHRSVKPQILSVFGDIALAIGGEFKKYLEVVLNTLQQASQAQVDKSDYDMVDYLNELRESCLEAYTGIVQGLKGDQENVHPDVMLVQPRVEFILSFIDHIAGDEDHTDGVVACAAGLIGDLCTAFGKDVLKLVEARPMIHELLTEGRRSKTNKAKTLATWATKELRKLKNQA
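Inhibition scored from the CFP 486 nm/YFP 530 nm FRET ratio 45 min after adding 0.125 microM importin beta to 50 nM Rango biosensor preincubated 5 min with compound (room temperature, PBS with DTT, Tween-20, BSA). No-importin wells as positive control.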
GLA inh pH 4.5 = qHTS Assay for Inhibitors of Human alpha-Galactosidase at pH 4.5 | Alpha-galactosidase A (Homo sapiens), P06280 | 230,000 tested, under 10 active | activity change, negative = inhibition, % at 105 µM | purified enzyme, 4-MU-alpha-Gal fluorescence, pH 4.5 | AID 1467, 2008; inconclusive = small, poorly fitted or top-dose-only inhibition, or a rising curve; inactive = flat fitted curve, though single readings scatter; no compound was filed as active;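 also: 0% = full activity with enzyme and -100% = basal without enzyme; dose as in the result columns while the protocol names 77 µM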
miR-21 FLuc = qHTS Assay for Modulators of miRNAs and/orActivators of miR-21; HeLa miR-21 FLuc reporter, luciferase, 48 h; Potency, µM (top dose mostly 38.3 µM), inactives show at the top dose reporter change, positive = more light; 340,000 tested, under 10 active; active = well fitted rising curve with a large enough effect; inconclusive = small, poorly fitted or top-dose-only effect; inactive = no such curve, though single readings can be large or run the other way;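 also: % of control where 0% means no effect; miR-21 action dims this reporter so a rising signal means less miR-21 action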
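Luminescence from a firefly luciferase reporter carrying a miR-21 binding site downstream, stably expressed under a CMV promoter in HeLa cells that make miR-21 endogenously, reports miRNA modulation after 48 h compound exposure up to approximately 40uM final.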
Rango release inh = qHTS Assay for Inhibitors of RanGTP induced Rango (Ran-regulated importin-beta cargo) - Importin beta complex dissociation; Snurportin-1 (Homo sapiens) + GTP-binding nuclear protein Ran (Homo sapiens) + Importin …; Biochemical FRET Rango-importin beta, RanGTP-induced dissociation; Potency, µM (titrated, usually from 46.1 µM), for the others: at the highest dose activity change, negative = inhibition; 340,000 compounds, 0.071% hits; AID 540253, 2011; active means falling FRET ratio curve, often poorly fitted, with flat reads before Ran was added; inconclusive means other falling curves, or compound fluorescence or quenching; inactive means flat or rising ratio curve;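 also: potency is read from the fitted curve at half-maximal effect; % of control where 0% means no effect; nearly all actives have a fitted effect of over 45% in size; -100% = wells without RanGTP and RCC1; the record marks most hits as doubtful in a second field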
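Compounds sat 5 min at room temperature with 0.1 uM Rango biosensor plus 0.25 uM importin beta, then FRET pre-read. RanGTP-RCC1 (0.6 uM Ran, 2mM GTP, 0.2 uM RCC1) added for 45 min, and the CFP/YFP post-read measured blocked complex dissociation.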
* hit, by the source's call; ? = inconclusive; . = not tested or not shown; & = joins results of further samples. These rows are one share of the data, so the mix of outcomes need not match the whole.

SMILES	Rango complex inh	GLA inh pH 4.5	miR-21 FLuc	Rango release inh
CCCCC(=O)Nc1nnc(SCC(=O)NCC2CCCO2)s1 (stereo unspecified)	2.7%	.	.	0.3%
O=C(N/N=C/c1c(F)c(F)c(F)c(F)c1F)c1cc(-c2ccccc2)nc2ccccc12	1.9%	.	-4.4%	0.0%
FC(F)(F)c1ccc(C2[C@H]3CN(CC4CCCCC4)[C@H](c4ccccc4)C34CC2(c2cccnc2)C4)cc1 (stereo partly specified)	0.4%	-8.1&-4.0	0.0%	-13.2%
COC(=O)/C(=C/N(C)C)C(=O)N1CCN(c2ccc(Cl)c(Cl)c2)CC1	2.3%	-11.5	0.4%	1.8%
CCCCN(C)C(=O)Cc1c(OC)ccc2cc(Br)ccc12	-1.9%	-5.5	3.1%	-3.2%
O=C1CCCCC1C(Nc1ccc(Cl)cc1)c1ccccc1 (stereo unspecified)	-0.8%	-1.0	-0.9%	2.3%
O=C(c1ccccc1)c1cncc(Br)c1	5.4%	10.1	-3.1%	-9.0%
CC(=O)N(Nc1ccccc1)c1ccccc1	3.5%	.	-5.3%	0.3%
CC(C)(C)NC(=O)CSc1nnnn1C(C)(C)C	0.9%	-7.1	-31.5%	1.0%
COc1ccc(NC(=O)C2CCCN2S(=O)(=O)c2cccs2)c([N+](=O)[O-])c1 (stereo unspecified)	0.1%	.	.	17.5%
O=C(Oc1ccc(-c2nnco2)cc1)N1CCOCC1	0.2%	3.5	-7.1%	15.4%
Cc1cccc(C)c1OCC(=O)NNC(=O)Nc1ccc(Cl)cc1	1.9%	11.2	-3.5%	3.8%
CC(C)(CCc1ccccn1)C(=O)CCCc1ccccn1	0.5%	.	.	-10.4%
Cc1cccc(NC(=O)NNC(=O)COc2ccc(Cl)cc2)c1	0.0%	2.4	-2.4%	-10.1%
COc1ccc(CNC(=O)CCSCc2cccc(Cl)c2)c(OC)c1	0.7%	3.0	-10.4%	-6.8%
CCC(C)c1ccc(S(=O)(=O)N2CCN(CC(O)CN3CCOCC3)CC2)cc1 (stereo unspecified)	6.6%	.	.	-8.1%
COc1ccc(NC(=O)CC2CCCC2)cc1OC	3.2%	.	-13.5%	-12.9%
O=C(/C=C/c1ccc([N+](=O)[O-])cc1)N1CCN(Cc2ccccc2)CC1	0.6%	.	-1.9%	2.7%
O=C(c1ccccc1)c1ccccc1C(=O)c1ccccc1	2.4%&3.6%	2.6	-1.0%&-1.7%	22.0%&0.9%
CCOc1ccc(C2C(C(=O)OC)=CN(CCOC)C=C2C(=O)OC)cc1	?	?	-5.1%	?
CC(C)Oc1ccc(N2CC(C(=O)OCC(=O)NCc3ccccc3)CC2=O)cc1 (stereo unspecified)	-0.2%	3.8	-1.2%	18.2%
O=C(CSc1nnc(SCc2cccc3ccccc23)s1)N/N=C/c1c[nH]c2ccccc12	-1.2%	-3.5	-4.4%	0.4%
COc1ccc(OCC(=O)Nc2cccc(C(=O)Nc3ccccc3C(=O)O)c2)cc1	-1.3%	-3.8	-3.0%	10.7%
Cc1cccc(NC(=O)CSc2nc(COc3ccccc3)nc3ccccc23)c1C	-1.7%	-13.0	5.5%	-9.5%
Cc1oc2ccc(O)c(CN(C)C)c2c1C(=O)c1ccccc1	-0.2%	-0.3	-4.9%	14.9%
Carrying on.
SMILES	Rango complex inh	GLA inh pH 4.5	miR-21 FLuc	Rango release inh
Cc1oc(-c2cccc(Cl)c2)nc1CN1CCC(C(=O)N2CCN(c3ccccn3)CC2)CC1	0.0%	.	.	-0.5%
CC(C)NC(=O)/C(C#N)=C/c1ccc(N(C)C)o1	?	-11.4	-24.1%	?
CCCCCn1c(=O)c(C(=O)OCC)c(O)c2ccccc21	-1.0%	6.4	-0.5%	2.0%
CCCCN(CCCNC(=O)C1CCCN(S(=O)(=O)CC)C1)Cc1ccccc1 (stereo unspecified)	-2.5%	-8.6	-7.2%	0.6%
COc1cc(/C=N/NC(=O)c2cccc3ccccc23)ccc1OCC(N)=O	3.4%	.	.	16.0%
CC(C)[C@H](NC(=O)N1c2ccccc2NC(=O)[C@@H]1C(C)C)C(=O)N1CCC[C@H]1C(=O)O	2.5%	.	-11.2%	-1.2%
O=C(CNC(=O)c1ccccc1O)N/N=C/c1cc(Br)ccc1OC(=O)/C=C/c1ccco1	?	-9.8	13.7%	-17.5%
COc1ccc(Cl)cc1N1CCN(CCNC(=O)Nc2ccccc2C)CC1	-2.0%	0.9	7.5%	11.6%
O=C(CN(c1ccc([N+](=O)[O-])cc1)S(=O)(=O)c1ccccc1)N1CCCCC1	0.8%	.	0.0%	7.0%
Cc1ccccc1C(=O)NCC(=O)NNC(=O)CCN1CCN(c2ccccc2)CC1	-0.8%	.	-0.6%	-8.4%
CCOCCCn1cnc2c(c1=O)c1nc3ccccc3nc1n2-c1ccccc1	?	3.0	-2.9%	39.2%
Cc1ccc(S(=O)(=O)CC(=O)Nc2nc(C(C)(C)C)cs2)cc1	?	.	0.8%	-15.1%
CC1(C)CN(c2cccc(Br)c2)C1=O	0.5%	-11.0	-0.6%	-2.8%
Nc1nnc(SCc2coc(-c3ccc(Cl)cc3)n2)s1	-3.8%	-8.7	-39.2%	6.9%
COc1ccccc1N1CCN(/N=C/c2cc(OC)c(O)c(OC)c2)CC1	3.3%	-1.6	-15.3%	-2.5%
COc1ccc(C(C(=O)NCC2CCCO2)N(C(=O)c2snc(C(N)=O)c2N)c2ccccc2)cc1OC (stereo unspecified)	-2.4%	.	4.4%	1.5%
O=C(Cn1c(=O)[nH]c2ccccc2c1=O)Nc1ccc2c(c1)OCO2	7.6%	.	-8.9%	-5.9%
Cc1nc2sc3c(NCc4ccco4)ncnc3c2c2c1COC(C)(C)C2	-1.9%	1.1	-5.7%	-2.8%
Cc1cc(C)c2c(CN3CCN(CCO)CC3)cc(=O)oc2c1	-0.8%	8.2	-16.1%	18.0%
CC(=O)c1ccc(OCC(O)CN2CCCC(C)C2)cc1 (stereo unspecified)	-0.7%	-1.3	-6.0%	17.7%
COc1ccc(/C(N)=N/OC(=O)CCCN2C(=O)c3ccccc3C2=O)cc1OC	-0.4%	-0.1	0.4%	0.3%
C=CCC(Nc1ccccc1)C12C=CC(O1)C(C(=O)OC)=C2C(=O)OC (stereo unspecified)	2.7%	-1.2	6.0%	2.6%
CCOC(=O)Cc1c(C)nc2c(-c3ccccc3)c(C)[nH]n2c1=O	5.3%	-16.0	1.5%	4.0%
Cc1cccc(C(=O)Nc2cccc(-c3ccc4nncn4n3)c2)c1	0.6%	0.6	1.6%	11.9%
O=C(O)C1C2CCCCC2=C2CCCCC2C1C(=O)Nc1nccs1 (stereo unspecified)	-5.4%	.	.	7.4%
(further entries)
SMILES	Rango complex inh	GLA inh pH 4.5	miR-21 FLuc	Rango release inh
O=C(NCc1cccs1)C1CCC(CNS(=O)(=O)c2cccc3nsnc23)CC1 (stereo unspecified)	-3.4%	4.4	0.0%	-4.0%
O=C(COC(=O)c1ccccc1O)NCc1ccccc1Cl	-3.3%	.	.	-0.5%
O=C(CN1CCC(C(=O)c2ccc(F)cc2)CC1)Nc1ccccc1Cl	-5.6%	.	8.5%	-2.0%
Cc1ccc2c(c1)OC(=O)CC2c1ccccc1 (stereo unspecified)	-0.6%	-2.1	-1.0%	1.4%
Cc1noc(NS(=O)(=O)c2ccc(NC(=O)c3cc4ccccc4o3)cc2)c1C	3.8%	.	.	3.3%
CC(OC(=O)c1ccc(Cl)cc1O)C(=O)NCCC1=CCCCC1 (stereo unspecified)	0.7%	.	.	0.9%
CSCC(=O)N1CCCC(C(=O)c2cc(F)ccc2F)C1 (stereo unspecified)	6.2%	1.6	-2.4%	-9.9%
Cc1cc(C(=O)NC2CCCc3c2cnn3-c2cccc(C)c2C)no1 (stereo unspecified)	-2.8%	.	7.9%	4.7%
O=C(CSc1nc2ncccc2[nH]1)NC1CCCC1	-0.4%	.	-0.2%	-10.1%
CCOc1ccc(C(=O)NCc2cccs2)cc1	1.3%	6.0	-43.3%	-5.5%
Cc1ccc(S(=O)(=O)N2CCCC2)cc1C(=O)NCc1ccccn1	4.8%	.	-2.0%	9.7%
CNC(=O)C(=O)NCC(c1cccs1)S(=O)(=O)c1ccc(C)cc1 (stereo unspecified)	-4.9%	.	1.1%	0.8%
S=C(NCc1cccs1)Nc1ccc(Cl)cc1	1.1%	0.4	-12.3%	12.4%
CCCNC(=O)N1CCN(C(c2ccccc2)c2ccccc2)CC1	?	.	-13.0%	12.8%
CCOC(=O)C1(Cc2ccccc2)CCCN(Cc2ccccn2)C1 (stereo unspecified)	-0.1%	3.6	-0.1%	-2.2%
CCOC(=O)c1c(-c2ccccc2)oc2cc(Br)c(O)cc12	1.3%	.	-2.7%	1.7%
CC(=O)O/N=C/c1c(C)c(C=O)n2ccccc12	-1.2%	-1.9	0.0%	-10.2%
CC(C)CN1CCC(=O)N([C@H](CSc2ccc(Br)cc2)Cc2ccccc2)CC1	0.1%	-9.0	-4.6%	2.1%
COC(=O)c1ccc(N2CCOCC2)c(NC(=O)c2ccc3c(c2)OCO3)c1	?	.	1.3%	?
Cc1nc(SCC(=O)N2CCC(Cc3ccccc3)CC2)[nH]c(=O)c1C	-0.2%	.	.	-5.9%
CNC(=O)N(O)C1N(/N=C/c2ccccc2O)C(=S)SC1(C)C (stereo unspecified)	-0.5%	-10.3	-6.5%	-6.0%
CCOC(=O)c1cccc(NC(=O)CCc2c(C)nc3ncnn3c2C)c1	-0.9%	-2.0	-24.7%	-5.1%
CCOC(=O)C(C)NC(=O)C(NC(=O)C1CCC(CC)CC1)C(C)C (stereo unspecified)	6.9%	9.0	-5.0%	1.0%
CCn1c(SC(C)C(=O)Nc2ccc(N3CCOCC3)cc2)nnc1-c1ccco1 (stereo unspecified)	-2.1%	.	.	-16.9%
O=C1C=C(c2cccc(Br)c2)C[C@@H](c2ccc(Cl)cc2)C1	2.6%	.	.	5.9%

In the list so far, six contain a thiophene ring, fused or not.
SMILES	Rango complex inh	GLA inh pH 4.5	miR-21 FLuc	Rango release inh
COc1ccc(NC(=O)C2CCCN2S(=O)(=O)c2cccs2)c([N+](=O)[O-])c1 (stereo unspecified)	0.1%	.	.	17.5%
Cc1nc2sc3c(NCc4ccco4)ncnc3c2c2c1COC(C)(C)C2	-1.9%	1.1	-5.7%	-2.8%
O=C(NCc1cccs1)C1CCC(CNS(=O)(=O)c2cccc3nsnc23)CC1 (stereo unspecified)	-3.4%	4.4	0.0%	-4.0%
CCOc1ccc(C(=O)NCc2cccs2)cc1	1.3%	6.0	-43.3%	-5.5%
CNC(=O)C(=O)NCC(c1cccs1)S(=O)(=O)c1ccc(C)cc1 (stereo unspecified)	-4.9%	.	1.1%	0.8%
S=C(NCc1cccs1)Nc1ccc(Cl)cc1	1.1%	0.4	-12.3%	12.4%

Continuation:
SMILES	Rango complex inh	GLA inh pH 4.5	miR-21 FLuc	Rango release inh
CC#CC#Cc1cccc(=O)o1	-3.0%	2.3	?	4.7%
O=C(O)CC1(C(=O)O)CCCC1	4.3%	.	.	1.6%
O=C(CSc1nnc(CNC(=O)c2ccccc2F)o1)NC1CCCC1	-1.2%	.	-4.7%	-15.0%
COc1ccc(-c2ccc(/C=C3/C(=N)N4C(C)=CSC4=NC3=O)o2)c([N+](=O)[O-])c1	0.7%	-24.7	-5.7%	7.0%
Cc1nc2c(nnn2Cc2ccccc2)c(=O)n1-c1ccccc1	-0.3%	2.7	-5.3%	1.1%
CC(=O)c1cccc(NC(=O)C2CC(=O)N(C3CCCC3)C2)c1 (stereo unspecified)	0.1%	.	.	-6.8%
COc1cccc(C2/C(=C(\O)c3ccc4c(c3)OCCO4)C(=O)C(=O)N2Cc2cccnc2)c1 (stereo unspecified)	-2.0%	.	-4.5%	13.1%
O=C1N[C@H](Cc2ccccc2)COC(=O)[C@H](Cc2ccc(F)cc2)C/C=C\C[C@@H]1CC(=O)N(CCO)Cc1ccccc1	-1.4%	.	.	13.7%
COC(=O)c1ccc(OCC(=O)Nc2ccccc2C(=O)NC2CC2)cc1	0.1%	.	.	11.9%

Compound activity from PubChem.
